RE007 growth inh: less growth of the S. pombe RE007 Vpr strain; Potency, µM (doses to about 92.2 µM), without a hit: top-dose activity change, negative = less growth; S. pombe RE007 Vpr strain, BacTiter-Glo ATP luminescence, 24 h; control for the full effect not named in the record; 0.21% of 360,000 active; AID 651644; active = well fitted falling curve with a large enough effect; inconclusive = small, poorly fitted or top-dose-only effect; inactive = no such curve, though single readings can be large or run the other way;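 further: on the % scale 0 is the no-effect control and ±100 the full control effect; nearly all actives have a fitted effect of over 50% in size; the assay follows cell death caused by Vpr and the record does not say whether a fall means rescue or toxicity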
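Fission yeast RE007 carrying one integrated HIV-1 vpr copy, seeded at OD 0.01 in PMG+AL medium with 23 nL pinned compound. Grown 24 h at 30 degrees; viability read by BacTiter-Glo luminescence after 5 min.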
Lassa entry inh: blocks Lassa virus binding to or entry into cells; AID 540256; 1.2% of 300,000 active; Lassa virus pseudotype entry inhibition, cell reporter; control for the full effect not named in the record; Potency, µM (doses to about 37.9 µM), for the others: at the top dose activity change, negative = inhibition, usual class: inhibitors; active means well fitted inhibition curve with a large enough effect; inconclusive means small, poorly fitted or top-dose-only effect, or effect the other way; inactive means flat fitted curve, though single readings scatter; tested in HEK293 cells; further: on the % scale 0 is the no-effect control and ±100 the full control effect; nearly all actives have a fitted effect of over 50% in size; luciferase read-out
NS1 function inh: influenza NS1 inhibition; S. cerevisiae slowed by influenza A NS1, growth recovery by OD600; 0.4% of 270,000 active; Potency, µM (doses to about 46.1 µM), without a hit: at the highest dose activity, positive = more growth; active means well fitted rising curve with a large enough effect; inconclusive means small, poorly fitted or top-dose-only effect; inactive means no such curve, though single readings can be large or run the other way; further: nearly all actives have a fitted effect of over 50% in size
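Read-out: OD600 growth recovery of NS1-expressing budding yeast. Cells grown overnight at 30C in -URA glucose medium, washed, resuspended and diluted 1:100 in 2% galactose assay medium, pH 6.0. Same strain lacking NS1 served as positive control.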
Cruzain inh noDet: cruzain (T. cruzi) inhibition without detergent; purified cruzain, Z-FR-AMC fluorescence, no detergent; Potency, µM, for inactives: max response, negative = inhibition, hits mostly inhibitors; 2.3% of 200,000 active; AID 1476;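 further: plate controls were enzyme without inhibitor for no effect and buffer without enzyme for full effect; nearly all actives have a fitted effect of over 40% in size; top concentration of the series not given in the record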
Target sequence (P25779 123-467 limits assumed): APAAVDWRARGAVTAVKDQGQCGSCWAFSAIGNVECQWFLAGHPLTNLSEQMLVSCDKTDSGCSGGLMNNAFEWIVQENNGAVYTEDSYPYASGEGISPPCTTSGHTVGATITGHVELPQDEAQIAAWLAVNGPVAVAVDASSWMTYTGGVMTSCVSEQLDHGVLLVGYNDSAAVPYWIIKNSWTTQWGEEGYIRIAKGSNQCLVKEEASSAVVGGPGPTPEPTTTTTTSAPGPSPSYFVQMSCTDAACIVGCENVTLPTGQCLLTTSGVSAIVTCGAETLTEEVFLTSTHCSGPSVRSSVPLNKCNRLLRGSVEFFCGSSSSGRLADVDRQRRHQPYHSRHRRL
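Purified cruzain at 1.5 nM, pre-incubated 15 min with compound at room temperature in 100 mM sodium acetate pH 5.5, 5 mM DTT, 0.00005% Triton X-100. Reaction started with 2 uM Z-FR-AMC; AMC fluorescence increase over 60 s gives rate.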
Cruzain Triton: cruzain (T. cruzi) inhibition with detergent; P25779; purified cruzain, Z-FR-AMC fluorescence, 0.01% Triton; Potency, µM, for the others: max response, negative = inhibition, hits mostly inhibitors; 0.43% of 200,000 active;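 further: plate controls were neutral wells for no effect and buffer without enzyme for full effect; nearly all actives have a fitted effect of over 40% in size; top concentration of the series not given in the record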
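Read-out: AMC fluorescence (360 nm excitation, 450 nm emission), four reads over 2 min, first-to-third difference used. Conditions: cruzain 1.5 nM, Z-FR-AMC 2 uM, pH 5.5 acetate, 5 mM DTT, 0.01% Triton X-100.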
SARS PLpro yeast: inhibitors of SARS-CoV papain-like protease in yeast; S. cerevisiae expressing SARS-CoV PLpro, growth rescue; control for the full effect not named in the record; Potency, µM (titrated, usually from 32.9 µM), for the others: at the top dose activity, positive = growth rescue; 0.19% of 330,000 active; AID 485353; active means well fitted rising curve with a large enough effect; inconclusive means small, poorly fitted or top-dose-only effect; inactive means no such curve, though single readings can be large or run the other way; further: 0% is about no effect; nearly all actives have a fitted effect of over 55% in size; growth read by luminescence after 48 h
Marburg entry inh: blocks Marburg virus binding to or entry into cells; Marburg virus pseudotyped entry inhibition, cell reporter; control for the full effect not named in the record; about a third of the inactives were read at about 46 µM; Potency, µM (top dose mostly 37.8 µM), without a hit: at the top dose activity change, negative = inhibition, actives largely listed as inhibitors; 1.8% of 300,000 active; AID 540276; active = well fitted inhibition curve with a large enough effect; inconclusive = small, poorly fitted or top-dose-only effect, or effect the other way; inactive = flat fitted curve, though single readings scatter; tested in HEK293 cells; about a fifth of its hits are not listed in these tables; further: on the % scale 0 is the no-effect control and ±100 the full control effect; luciferase read-out
2A StopGo: lowers the luciferase signal of an FMDV 2A StopGo reporter | human cells with a luciferase reporter of 2A StopGo recoding; control for the full effect not named in the record | Potency, µM (top dose mostly 57.9 µM), for the others: at the top dose signal change, negative = less light | 1.2% of 410,000 active; active = well fitted falling curve with a large enough effect; inconclusive = small, poorly fitted or top-dose-only effect; inactive = no such curve, though single readings can be large or run the other way; tested in HEK293T cells; further: on the % scale 0 is the no-effect control and ±100 the full control effect; nearly all actives have a fitted effect of over 45% in size; luciferase light after 4 h
* marks the source's active call; other numbers are inactive results; ? = inconclusive; nt = not tested or not shown; & = joins results of further samples; [ ] = another dose, or the depositor's remark. Unless noted, the call rests on the fitted dose curve; in most records, active means well fitted curve in the direction sought with a large enough effect; inconclusive means small, poorly fitted or top-dose-only effect, or another doubt; inactive means no such curve, though single readings can be large; an effect the other way counts as inactive or inconclusive. Potency means the concentration at half of the fitted maximal effect.

The first 9 entries, to show the layout:
| Molecule | RE007 growth inh | Lassa entry inh | NS1 function inh | Cruzain inh noDet | Cruzain Triton | SARS PLpro yeast | Marburg entry inh | 2A StopGo |
| --- | --- | --- | --- | --- | --- | --- | --- | --- |
| Cn1cccc1-c1nc2ccccc2n1Cc1ccccc1 | -1% | ? | -41% | -18% | -3.4% | -11% | -26% | ? |
| Cc1ccc(-c2nnc3ccc(SCC(=O)N4CCCc5ccccc54)nn23)cc1 | -2% | ? | -2% | 23% | -6.5% | -13% | ? | -3% |
| O=S(=O)(NCC1CCCO1)c1ccc(S(=O)(=O)N(Cc2ccc(F)cc2)Cc2ccccn2)cc1 (stereo not given) | 34% | 7% | 13% | 28% | -5.2% | 12% | ? | 19% |
| Oc1cccc(/C=N/Nc2ccc(Cl)nn2)c1O | 0% | nt | 2% | nt | nt | 0% | nt | 9% |
| Cc1csc(SCC(=O)Nc2ccccc2C)n1 | 12% | 0% | nt | nt | nt | -8% | ? | 10% |
| C=CCn1c(SC(C)C(N)=O)nc2sc(CC)cc2c1=O (stereo not given) | 3% | 8% | nt | nt | nt | -1% | 0%[46.1 µM] | -15% |
| CC(C)(C)c1ccccc1NC(=O)c1cccnc1 | -15% | -15% | 1% | 3% | -4.8% | 2% | 1% | -9% |
| COc1ccccc1NC(=O)c1cc(C(=O)Nc2ccccc2OC)cc([N+](=O)[O-])c1 | 5% | nt | -2% | nt | nt | 0% | nt | -7% |
| C=CCc1ccccc1OCC(O)CNC(C)C (stereo not given) | -19% | 2%&-21% | -1%&1% | -13%&3%&-3% | -4.2%&-4.0%&5.9% | 0% | 18µM* | -21%&-9%&-12% |

All compounds of this part, repeating the preview:
| Molecule | RE007 growth inh | Lassa entry inh | NS1 function inh | Cruzain inh noDet | Cruzain Triton | SARS PLpro yeast | Marburg entry inh | 2A StopGo |
| --- | --- | --- | --- | --- | --- | --- | --- | --- |
| Cn1cccc1-c1nc2ccccc2n1Cc1ccccc1 | -1% | ? | -41% | -18% | -3.4% | -11% | -26% | ? |
| Cc1ccc(-c2nnc3ccc(SCC(=O)N4CCCc5ccccc54)nn23)cc1 | -2% | ? | -2% | 23% | -6.5% | -13% | ? | -3% |
| O=S(=O)(NCC1CCCO1)c1ccc(S(=O)(=O)N(Cc2ccc(F)cc2)Cc2ccccn2)cc1 (stereo not given) | 34% | 7% | 13% | 28% | -5.2% | 12% | ? | 19% |
| Oc1cccc(/C=N/Nc2ccc(Cl)nn2)c1O | 0% | nt | 2% | nt | nt | 0% | nt | 9% |
| Cc1csc(SCC(=O)Nc2ccccc2C)n1 | 12% | 0% | nt | nt | nt | -8% | ? | 10% |
| C=CCn1c(SC(C)C(N)=O)nc2sc(CC)cc2c1=O (stereo not given) | 3% | 8% | nt | nt | nt | -1% | 0%[46.1 µM] | -15% |
| CC(C)(C)c1ccccc1NC(=O)c1cccnc1 | -15% | -15% | 1% | 3% | -4.8% | 2% | 1% | -9% |
| COc1ccccc1NC(=O)c1cc(C(=O)Nc2ccccc2OC)cc([N+](=O)[O-])c1 | 5% | nt | -2% | nt | nt | 0% | nt | -7% |
| C=CCc1ccccc1OCC(O)CNC(C)C (stereo not given) | -19% | 2%&-21% | -1%&1% | -13%&3%&-3% | -4.2%&-4.0%&5.9% | 0% | 18µM* | -21%&-9%&-12% |
| Cc1cccc(OCCSc2nc3ccccc3n2CC(=O)N2CCOCC2)c1C | nt | -5%[46.1 µM] | nt | -11% | -4.9% | nt | 3%[46.1 µM] | -12% |
| Cc1ccccc1OCCSc1nnc(-c2ccncc2)n1C | 2% | 0% | -10% | 4% | -4.1% | -3% | -2% | -7% |
| Cc1cc(S(=O)(=O)N2CCN=C2c2ccccc2)c(Cl)cc1Cl | -8% | -6% | -11% | 11% | -4.2% | 1% | -16% | 5% |
| O=C(COc1ccc([N+](=O)[O-])cc1Cl)Nc1ccc2[nH]c(=O)[nH]c2c1 | 0% | -11%[46.1 µM] | nt | nt | nt | 4% | -2%[46.1 µM] | -19% |
| O=C(COc1ncnc2ccccc12)Nc1ccc(Cl)c([N+](=O)[O-])c1 | -3% | 24%[46.1 µM] | 6% | -11% | -7.1% | -12% | -3% | 1% |
| S=C(NCCN1CCOCC1)N/N=C/c1ccccc1 | -4% | -19% | 5% | -7% | -0.3% | 1% | 0% | 11% |
| CCOC(=O)C1(CCOc2ccccc2)CCN(Cc2ccc(OC)c(COC)c2)CC1 | -9% | ? | 9% | nt | nt | 1% | ? | ? |
| Cc1cc(NC(=O)Nc2cc(C)nn2-c2ccccc2)n(-c2ccccc2)n1 | 20% | 19% | -7% | -9% | 0.5% | 6% | 3% | -3% |
| C=C(C)c1cccc(C(C)(C)NC(=O)N2CCCC(C)C2)c1 (stereo not given) | -9% | -20% | -5% | 7% | -0.7% | -6% | -8%[46.1 µM] | ? |
| Cc1ccc(-n2nc3c(=O)n(CC(=O)NCc4ccccc4Cl)nc(C)c3c2C)cc1 | -19% | 18%[46.1 µM] | -4% | nt | nt | 0% | -4%[46.1 µM] | -18% |
| Cc1cccc(OCc2nnc(SCC(=O)Nc3cccc(C(=O)N4CCOCC4)c3)n2C)c1C | -19% | -2% | -4% | ? | -0.3% | -4% | -3% | -9% |
| COc1ccc(C(=O)Nc2nc(C)cc(C)n2)cc1 | 4% | 27% | 8% | nt | nt | -2% | 5% | -12% |
| CC1=NN(c2ccc(Cl)cc2)C(=O)/C1=C\c1cccn1-c1ccc(S(N)(=O)=O)cc1 | nt | 2% | -32% | 8% | -6.8% | -67% | -3% | 40µM* |
| Cc1nn(C)cc1CN(C)C(=O)c1cc(-c2ccccc2)nc2ccc(Br)cc12 | 2% | ? | nt | ? | -7.8% | -1% | ? | 0%&-21% |
| O=C(NNC(=S)Nc1ccc(F)cc1)C1[C@H]2CCCC[C@@H]12 (stereo not given in full) | 6% | -27%[46.1 µM] | -1% | nt | nt | 1% | ? | 77%[activator] |
| O=[N+]([O-])c1ccccc1CN1CCN(Cc2c[nH]c3ccccc23)CC1 | 5% | ? | nt | nt | nt | 3% | ? | -17% |
| O=C(CSc1ccc2nnc(-c3ccccn3)n2n1)NCc1ccco1 | 9% | nt | -12% | -20% | -17% | 10% | nt | -17% |
| Cc1ccc(S(=O)(=O)N2CCOCC2)cc1C(=O)OCc1nnc(-c2ccccc2)o1 | 9% | 1% | nt | nt | nt | 1% | -4%[46.1 µM] | ? |
| CCN(Cc1ccccc1)C(=O)COc1ccccc1 | -2% | -4% | -9% | nt | nt | -3% | 18% | 14% |
| CCC(c1nnnn1Cc1ccco1)N(CCc1ccccc1)Cc1cc2cc(C)ccc2[nH]c1=O (stereo not given) | 12% | ? | ? | -15% | -9.7% | 4% | ? | -25% |
| O=C(N/N=C/c1ccncc1)c1ccccc1[N+](=O)[O-] | 4% | 1% | nt | nt | nt | 2% | ? | 0% |
| O=C(/C=C/C=C/c1ccccc1)CC1(O)C(=O)N(CCc2ccccc2)c2ccccc21 (stereo not given) | 7% | ? | -86% | 1% | -8.0% | -14% | ? | ? |
| COc1cc2c(cc1OC)C(c1ccc(C(F)(F)F)cc1)CC(=O)N2 (stereo not given) | -16% | -3%[46.1 µM] | 22% | nt | nt | -1% | ? | -17% |
| CCC(SC1=N/C(=C/c2ccccc2)C(=O)N1c1ccccc1)C(=O)Nc1cc(C)on1 (stereo not given) | 5% | 2% | -9% | 32µM* | -1.3% | -5% | ? | -5% |
| CCOCCc1nnc(NC(=O)C(=O)c2cc(C)n(-c3cccc(C)c3)c2C)s1 | nt | -6%[46.1 µM] | nt | 8% | -9.2% | nt | -18%[46.1 µM] | -9% |
| CC1=C(C(=O)Nc2ccc(C)cc2C)C(c2sccc2C)n2ncnc2N1 (stereo not given) | nt | 1%[46.1 µM] | nt | -10% | -0.8% | nt | nt | 2% |
| CCOC(=O)c1ccc(N2C(=O)c3[nH]nc(-c4ccc(OC)cc4)c3C2c2ccccc2Cl)cc1 (stereo not given) | nt | 15%[46.1 µM] | nt | 1% | -0.4% | nt | 3%[46.1 µM] | ? |
| Cc1ccc(-c2n[nH]c(=O)c3ccccc23)cc1S(=O)(=O)NCC1CCCO1 (stereo not given) | -18% | -1%[46.1 µM] | -1% | nt | nt | 3% | 3%[46.1 µM] | 24% |
| OC1(C2(O)CC(c3ccccc3)ON2)CCCCC1 (stereo not given) | ? | ? | 3% | 3% | -3.6% | -2% | ? | ? |
| COC(=O)c1ccccc1-c1ccc(/C=C2\C(=O)N(c3ccccc3)N=C2c2ccccc2)o1 | 4% | 1% | 1% | -6% | -0.6% | 3% | 1% | ? |
| CCOC(=O)N1CCN(C(=O)C2CCC(=O)N(CCCc3ccccc3)C2)CC1 (stereo not given) | 3% | -8% | 2% | nt | nt | 5% | 4% | 1% |
| CCOC(=O)CN1C(=O)N[C@H](c2ccc(Br)cc2)C(C(C)=O)=C1C | 4% | -7% | -16% | -12% | -7.6% | -8% | -3%&-3% | 0% |
| COc1ccc(C(=O)NCc2nnc(SCC(=O)c3ccccc3)n2C)cc1OC | -26% | -1% | nt | nt | nt | -2% | ? | -11% |
| CCc1ccccc1NC(=O)COc1ccc2oc(-c3ccc(OC)cc3)cc(=O)c2c1 | -2% | ? | 1% | -28% | -5.7% | -13% | 15% | 9% |
| O=C(CN1CCCCCC1)Nc1ccccc1Oc1ccccc1 | -8% | 14% | nt | nt | nt | 3% | ? | ? |
| CC(C)c1ccc(C(CC(=O)O)NC(=O)c2cccs2)cc1 (stereo not given) | -6% | 3% | nt | nt | nt | 1% | -3%[46.1 µM] | -2% |
| CCOCCCNC(=O)C(c1ccccc1)N(Cc1cccs1)C(=O)CNC(C)=O (stereo not given) | 6% | 0% | -9% | 1% | 1.2% | -1% | -1% | -12% |
| COc1ccc(S(=O)(=O)N2CCCOC2CNC(=O)C(=O)NCCCn2ccnc2)cc1OC (stereo not given) | 0% | -8% | nt | nt | nt | -1% | 30%[46.1 µM] | -11% |
| CC(=O)Oc1ccc(N2C(=O)c3cccc4c([N+](=O)[O-])ccc(c34)C2=O)cc1 | -7% | nt | -48% | nt | nt | -3% | nt | ? |
